# Assay outcomes deposited in PubChem BioAssay by National Center for Advancing Translational Sciences (NCATS).
# Marburg entry inh – blocks Marburg virus binding to or entry into cells | Marburg virus pseudotyped entry inhibition, cell reporter; control for the full effect not named in the record; about a third of the inactives were read at about 46 µM | AID 540276 | Potency, µM (titrated, usually from 37.8 µM), without a hit: at the highest dose activity change, negative = inhibition, usual class: inhibitors | hit rate 1.8% among 300,000; active = well fitted inhibition curve with a large enough effect; inconclusive = small, poorly fitted or top-dose-only effect, or effect the other way; inactive = flat fitted curve, though single readings scatter; tested in HEK293 cells; about a fifth of its hits are not listed in these tables; also: % is scaled to controls: 0 for no effect and ±100 for the full control effect; luciferase read-out
# StopGo reporter – FMDV 2A StopGo reporter, luciferase signal; Potency, µM (top dose mostly 57.9 µM), without a hit: top-dose signal change, negative = less light; AID 1159524; hit rate 1.2% among 410,000; human cells with a luciferase reporter of 2A StopGo recoding; control for the full effect not named in the record; active = well fitted falling curve with a large enough effect; inconclusive = small, poorly fitted or top-dose-only effect; inactive = no such curve, though single readings can be large or run the other way; tested in HEK293T cells; also: % is scaled to controls: 0 for no effect and ±100 for the full control effect; nearly all actives have a fitted effect of over 45% in size; luciferase light after 4 h
# Cruzain Triton – inhibitors of Trypanosoma cruzi cruzain with detergent; P25779; purified cruzain, Z-FR-AMC fluorescence, 0.01% Triton; Potency, µM, inactives show max response, negative = inhibition, hits mostly inhibitors; hit rate 0.43% among 200,000; AID 1478;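 also: plate controls were neutral wells for no effect and buffer without enzyme for full effect; nearly all actives have a fitted effect of over 40% in size; top concentration of the series not given in the record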
# Target sequence (P25779 123-467 limits assumed): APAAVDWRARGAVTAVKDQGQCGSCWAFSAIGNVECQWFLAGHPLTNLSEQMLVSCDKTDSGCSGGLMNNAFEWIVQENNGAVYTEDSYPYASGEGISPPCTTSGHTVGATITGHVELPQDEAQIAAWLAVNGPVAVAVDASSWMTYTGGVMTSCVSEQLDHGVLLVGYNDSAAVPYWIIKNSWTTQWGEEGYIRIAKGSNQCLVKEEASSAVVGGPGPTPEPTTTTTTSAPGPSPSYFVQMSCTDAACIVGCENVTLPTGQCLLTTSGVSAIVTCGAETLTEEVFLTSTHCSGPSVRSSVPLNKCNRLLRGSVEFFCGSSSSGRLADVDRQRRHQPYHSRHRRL
#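 Compounds were screened in titration against cruzain (1.5 nM) with 0.01% Triton X-100 to counter colloidal aggregation. Activity was the AMC fluorescence increase over 60 s after adding 2 uM Z-FR-AMC at pH 5.5.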
# Lassa entry inh – inhibitors of Lassa virus binding or cell entry. Lassa virus pseudotype entry inhibition, cell reporter; control for the full effect not named in the record. Potency, µM (titrated, usually from 37.9 µM), for the others: at the highest dose activity change, negative = inhibition, actives largely listed as inhibitors. AID 540256. hit rate 1.2% among 300,000; active means well fitted inhibition curve with a large enough effect; inconclusive means small, poorly fitted or top-dose-only effect, or effect the other way; inactive means flat fitted curve, though single readings scatter; tested in HEK293 cells; also: % is scaled to controls: 0 for no effect and ±100 for the full control effect; nearly all actives have a fitted effect of over 50% in size; luciferase read-out
# SARS PLP yeast – inhibitors of SARS-CoV papain-like protease in yeast | S. cerevisiae expressing SARS-CoV PLpro, growth rescue; control for the full effect not named in the record | Potency, µM (highest dose often 32.9 µM), for inactives: at the top dose activity, positive = growth rescue | hit rate 0.19% among 330,000; active means well fitted rising curve with a large enough effect; inconclusive means small, poorly fitted or top-dose-only effect; inactive means no such curve, though single readings can be large or run the other way; also: 0% is about no effect; nearly all actives have a fitted effect of over 55% in size; growth read by luminescence after 48 h
# Cruzain inh noDet – blocks cruzain activity in detergent-free assay; AID 1476; Potency, µM, for inactives: max response, negative = inhibition, usual class: inhibitors; hit rate 2.3% among 200,000; purified cruzain, Z-FR-AMC fluorescence, no detergent;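 also: plate controls were enzyme without inhibitor for no effect and buffer without enzyme for full effect; nearly all actives have a fitted effect of over 40% in size; top concentration of the series not given in the record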
#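 Detergent-free condition (0.00005% Triton X-100) in acetate buffer pH 5.5 with DTT. 1.5 nM enzyme and compound were pre-mixed 15 min, then 2 uM Z-FR-AMC substrate added; reaction progress from fluorescence change between first and third reads (60 s).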
# RE007 growth inh – less growth of the S. pombe RE007 Vpr strain; S. pombe RE007 Vpr strain, BacTiter-Glo ATP luminescence, 24 h; control for the full effect not named in the record; Potency, µM (doses to about 92.2 µM), without a hit: at the highest dose activity change, negative = less growth; hit rate 0.21% among 360,000; AID 651644; active = well fitted falling curve with a large enough effect; inconclusive = small, poorly fitted or top-dose-only effect; inactive = no such curve, though single readings can be large or run the other way;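 also: % is scaled to controls: 0 for no effect and ±100 for the full control effect; nearly all actives have a fitted effect of over 50% in size; the assay follows cell death caused by Vpr and the record does not say whether a fall means rescue or toxicity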
#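 Fission yeast strain RE007, carrying one chromosomally integrated HIV-1 vpr copy, was seeded at OD 0.01 in PMG+AL medium with 23 nL pinned compound. After 24 h at 30 °C and 99% humidity, viability was read by BacTiter-Glo luminescence.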
# NS1 function inh – influenza NS1 inhibition; S. cerevisiae slowed by influenza A NS1, growth recovery by OD600; Potency, µM (highest dose often 46.1 µM), for inactives: at the highest dose activity, positive = more growth; hit rate 0.4% among 270,000; AID 2326; active means well fitted rising curve with a large enough effect; inconclusive means small, poorly fitted or top-dose-only effect; inactive means no such curve, though single readings can be large or run the other way; also: nearly all actives have a fitted effect of over 50% in size
#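 Compounds were scored for reversing the slow growth caused by influenza A NS1 in S. cerevisiae, measured by optical density at 600 nm. Assay medium contained 2% galactose at pH 6.0; NS1-free yeast of the same strain were the positive control.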
# Numbers without * were called inactive; ? = inconclusive; / = not tested or not shown; & = joins results of further samples; [ ] = remark or other dose. Unless noted, calls follow the shape of the dose curve; as a rule, active = well fitted curve in the direction sought with a large enough effect; inconclusive = small, poorly fitted or top-dose-only effect, or another doubt; inactive = no such curve, though single readings can be large; an effect the other way counts as inactive or inconclusive. Potency is read from the fitted curve at half-maximal effect. Rows were taken by chance. Share with any hit: about 4.7%.
SMILES	Marburg entry inh	StopGo reporter	Cruzain Triton	Lassa entry inh	SARS PLP yeast	Cruzain inh noDet	RE007 growth inh	NS1 function inh
CCOC(=O)c1cc(NC(=O)OC)c(C)nc1C	1%	5%	2.6%	7%	-6%	-14%	6%	8%
C/C(=N\NC(=O)c1cccc(Cl)c1)C1C(=O)c2ccccc2C1=O	-14%	-23%	-21%	?	-78%	6%	9%	-56%
O=C(Nc1ncccn1)C1CCCN1S(=O)(=O)c1ccc(Cl)c(Cl)c1 (configuration not stated)	9%	/	0.3%	0%	-1%	0%	3%	-2%
CN(C)c1ccc(/C=N/OC(=O)Nc2ccccc2)cc1	?	-36%	/	?	-3%	/	?	-11%
Cc1cccc(C)c1NC(=O)CN(C)C(=O)c1ccc(N2C(=O)CCC2=O)cc1	6%	-15%	/	5%	1%	/	-14%	/
COc1ccccc1C(=O)N/C(=C/c1ccco1)C(=O)Nc1cccc(C(=O)O)c1	19%[46.1 µM]	-3%	/	/	-2%	/	17%	21%
C/C(=N/NC(=O)c1ccccc1)C(=O)O	12%[46.1 µM]	13%	/	11%	-1%	/	5%	-5%
O=C(Nc1ccc2nc(-c3ccco3)[nH]c2c1)c1cccs1	-9%[46.1 µM]	17%	-17%	-7%	-47%	-23%	-12%	-54%
Cc1ccc(N(C(=O)CS(=O)CC(=O)Nc2ccc(F)cc2)C(C)C(=O)NC(C)(C)C)cc1 (configuration not stated)	?	21%	/	/	2%	/	2%	12%
COc1cc2sc(C)nc2c2sccc12	3%	-14%	-4.2%	1%	3%	3%	-17%	-37%
CC(C)(C)OC(=O)N[C@@H](Cc1ccccc1)C(=O)N1CCC(C(=O)O)CC1	3%	-10%	-2.2%	5%	-9%	2%	-10%	3%
CCc1cccc(NC(=O)Cc2ccc([N+](=O)[O-])cc2)c1	5%	-9%	-5.0%	-1%	4%	-19%	-9%	-4%
CCn1c(SCC(=O)N/N=C/C=C/c2ccco2)nnc1-c1ccc(OC)cc1	9%	-26%	-9.5%	4%	13%	9%	-1%	24%
COc1ccccc1NC(=O)CCN1C(=O)c2ccccc2S1(=O)=O	6%[46.1 µM]	26%	/	10%[46.1 µM]	-1%	/	11%	-2%
O=C(NC(Cc1c[nH]c2ccccc12)C(=O)O)c1ccccc1 (configuration not stated)	3%	0%	-3.3%	9%	-14%	-8%	21%[3.69 µM]	16%
CCOc1ccc(N(Cc2cc3cc(C)ccc3[nH]c2=O)C(=O)COC)cc1	/	-14%	/	/	0%	/	0%	8%
CNC(=O)/C(=C/c1ccc2c(c1)OCO2)NC(=O)c1ccc(Br)cc1	?	-3%	-5.6%	7%	12%	-5%	3%	-2%
COc1ccc2nc(NC(=O)c3cc(=O)c4cc(C)c(C)cc4o3)sc2c1	-15%[46.1 µM]	2%	-3.6%	2%[46.1 µM]	/	-6%	/	/
Cc1ccc(N2C(=O)S/C(=C/c3cn(C)c4ccccc34)C2=O)cc1	18%	21%	1.1%	6%	0%	?	3%	12%
COc1cccc(-c2nc(CS(=O)(=O)CC(=O)Nc3ccccc3C)c(C)o2)c1	?	-14%	/	-4%[46.1 µM]	-11%	/	-3%	3%
C=CCc1cc(C=O)cc(OC)c1OCc1ccc(C(=O)O)cc1	10%[46.1 µM]	22%	/	?	-2%	/	-20%	/
N=c1c[n+](-c2ccc(Cl)cc2)[n-]o1	-3%	-24%	0.3%	1%	4%	-6%	-4%	5%
CC(=O)c1ccc(NC(=O)Nc2ncn(Cc3cccc(C)c3)n2)cc1	8%	-7%	-0.7%	0.65µM*	21%	21%	5%	2%
Cc1nnsc1C(=O)N1CCCC(Nc2ccc(F)c(F)c2)C1 (configuration not stated)	/	-4%	/	/	-5%	/	-8%	12%
CCCn1cnc2c(c1=O)c1nc3ccccc3nc1n2CCC1=CCCCC1	/	/	1.5%	/	2%	4%	/	-13%

# Compound profiles (already shown). Order of screens: Marburg entry inh | StopGo reporter | Cruzain Triton | Lassa entry inh | SARS PLP yeast | Cruzain inh noDet | RE007 growth inh | NS1 function inh
# Listed for Cc1nnsc1C(=O)N1CCCC(Nc2ccc(F)c(F)c2)C1 (configuration not stated) → / | -4% | / | / | -5% | / | -8% | 12%
# Listed for CC(C)(C)OC(=O)N[C@@H](Cc1ccccc1)C(=O)N1CCC(C(=O)O)CC1 → 3% | -10% | -2.2% | 5% | -9% | 2% | -10% | 3%
# Listed for C/C(=N\NC(=O)c1cccc(Cl)c1)C1C(=O)c2ccccc2C1=O → -14% | -23% | -21% | ? | -78% | 6% | 9% | -56%
# Listed for CC(=O)c1ccc(NC(=O)Nc2ncn(Cc3cccc(C)c3)n2)cc1 → 8% | -7% | -0.7% | 0.65µM* | 21% | 21% | 5% | 2%
# Listed for O=C(NC(Cc1c[nH]c2ccccc12)C(=O)O)c1ccccc1 (configuration not stated) → 3% | 0% | -3.3% | 9% | -14% | -8% | 21%[3.69 µM] | 16%

# Carrying on.
SMILES	Marburg entry inh	StopGo reporter	Cruzain Triton	Lassa entry inh	SARS PLP yeast	Cruzain inh noDet	RE007 growth inh	NS1 function inh
Cc1ccc(C)c(NC(=O)Cn2c(=O)n(CC(=O)NCCc3ccccc3)c(=O)c3ccccc32)c1	0%[46.1 µM]	-5%	-1.4%	19%[46.1 µM]	/	1%	/	/
CCOC(=O)c1c(C)c(C(=O)OCC)n(C)c1C	15%[46.1 µM]	7%	/	-1%	1%	/	-1%	-10%
COc1ccc(NS(=O)(=O)c2cc3c(cc2C)N(C(C)=O)CCO3)c(OC)c1	/	-1%	/	/	2%	/	-9%	3%
CSc1ccc(/C=N/Nc2cccc(C(=O)O)c2)cc1	/	2.2µM*	/	0.89µM*	-1%	/	17%	/
CSc1nc2nccc(/C=C\c3ccccc3)n2n1	-29%	?	-8.8%	-29%	-14%	1%	-16%	-55%
CN(C)/C=C/c1onc(-c2c(F)cccc2Cl)c1C#N	-6%[46.1 µM]	6%	/	-11%[46.1 µM]	-2%	/	3%	/
O=C(C1CCCN(Cc2ccccc2[N+](=O)[O-])C1)N1CCCCC1 (configuration not stated)	/	-4%	/	/	1%	/	7%	2%
CC(NCc1ccc(S(N)(=O)=O)cc1)C(=O)Nc1ccc([N+](=O)[O-])cc1Cl (configuration not stated)	-2%[46.1 µM]	0%	/	-24%	0%	/	-10%	/
COC(=O)C(CCSC)NC(=O)c1cc2c(n(-c3ccc(OC)cc3)c1=O)CC(C)(C)CC2=O (configuration not stated)	28%[46.1 µM]	-7%	-7.5%	-5%[46.1 µM]	/	?	/	/
CC(C)N1CCOC1c1ccccc1 (configuration not stated)	0%	-8%	/	-6%	/	/	-11%	/
O=C(Nc1ccccc1)c1ccc2c(c1)CCN2S(=O)(=O)c1ccccc1	/	7%	/	/	-5%	/	6%	8%
Cc1ccc(SCc2cc(=O)[nH]c(N3CCCCC3)n2)cc1	?	27%	-4.3%	1%	1%	-11%	0%	-6%
CCN(CC)S(=O)(=O)c1ccc(N2CCOCC2)c(NC(=O)C2COc3ccccc3O2)c1 (configuration not stated)	?	-14%	/	?	0%	/	1%	/
N#CC(CO)(Cc1ccc(OC(F)F)cc1)c1nc2ccccc2[nH]1 (configuration not stated)	?	35%[activator]	-2.0%	25%	8%	-8%	3%	-4%
CCc1ccc(/C=C2/SC(=S)N(CCC(=O)Nc3cccc(C(=O)O)c3)C2=O)cc1	5%[46.1 µM]	33%[activator]	/	5%[46.1 µM]	1%	/	1%	3%
COc1ccc(/C=N/Nc2cc(N(C)C)nc(N(C)C)n2)cc1	4.5µM*	?	-12%	?	-5%	-1%	-26%	-19%
O=C(NCCSc1ccccc1)c1cncc(Br)c1	23%	40%[activator]	3.2%	13%	-18%	-15%	-1%	-7%
COc1ccc(OC)c(NC(=O)C2CCCN2S(=O)(=O)c2cccc3nsnc23)c1 (configuration not stated)	-13%[46.1 µM]	-15%	/	25%[46.1 µM]	-3%	/	1%	-3%
Cc1nc(Cl)c(C#N)cc1-c1ccccc1	-11%	-8%	2.4%	-6%	4%	-3%	-20%	-16%
Cc1cccc(NC(=S)N2CCC(c3nc4ccccc4s3)CC2)c1	8%	/	-3.5%	-2%	9%	4%	10%	-4%
Cc1ccc(CNc2cccnc2)cc1	/	0%	/	/	0%	/	-12%	-3%
O=c1ccnc2n1COCS2	/	-4%	/	/	0%	/	3%	5%
O=C(CN(C(=O)CNC(=O)c1cccs1)c1ccccc1)NC1CCCCC1	2%[46.1 µM]	18%	/	/	-5%	/	8%	21%
Cc1cccc(CNc2ncnc3ccc(-c4ccc5c(c4)OCO5)cc23)c1	/	?	-0.3%	/	-7%&5%	?	/	/
CCSc1nnc(NC(=O)c2cccn(Cc3ccc(Cl)cc3)c2=O)s1	/	?	1.0%	18%[46.1 µM]	/	-3%	/	/
COc1cccc(NC(=O)CSc2nc(=O)n(Cc3cccnc3)c3c2CCC3)c1	/	25%	-1.0%	-4%[46.1 µM]	/	11%	/	/
Cc1ccccc1NC(=O)C(C)SCc1ccccc1 (configuration not stated)	-2%[46.1 µM]	3%	/	?	1%	/	22%	3%
O=C(NC1CCCCC1)C1CC=CCC1C(=O)OCC(Cl)=C(Cl)Cl (configuration not stated)	?	-21%	0.3%	6%	-5%	2%	0%	3%
